Assay outcomes from PubChem.
HNF4A DNA FP = change in binding of human HNF4A to DNA, primary screen, biochemical, fluorescence polarization, FITC-DNA; Hepatocyte nuclear factor 4-alpha (Homo sapiens), P41235; AID 1224865, 2016; 0.3% of 360,000 active; 1 h; activity change, % at 10 µM; in the data active = activity change above about 30%, passing the limit was not always enough;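 also: controls were the assay level and a saturating level of protein; the project sought stronger binding though the title names inhibitors; some compounds called inactive have numbers as strong as hits; positive values seem to mean higher polarization but the record does not say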
FGF22 binding = binders of human FGF22 protein, primary screen, FGF22 synaptogenesis inhibitor project, biophysical, thermal shift, single point | recombinant FGF22 thermal shift, SYPRO orange fluorescence; percent of sucrose octasulfate shift, DMSO zero | calls only at 9.99 µM | 1.5% of 340,000 active;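 active = melting point raised past a set limit in the mean and every replicate; three in four hits are not shown here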
Target sequence (Q9HCT0 whole entry, looked up): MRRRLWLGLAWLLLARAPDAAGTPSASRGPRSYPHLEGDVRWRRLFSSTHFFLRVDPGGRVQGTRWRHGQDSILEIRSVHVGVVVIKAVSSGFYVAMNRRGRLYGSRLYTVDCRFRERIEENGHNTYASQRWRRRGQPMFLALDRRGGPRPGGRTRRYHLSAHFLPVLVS
UCH37 DUB inh = inhibitors of human UCH37 deubiquitinase, primary screen, biochemical, Ub-AMC cleavage, fluorescence | purified proteasome/UCH37 | inhibition, % (test concentration not listed) | 0.33% of 330,000 active | Ubiquitin carboxyl-terminal hydrolase isozyme L5 (Homo sapiens), Q9Y5K5;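 active = mean of two replicates above 20%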;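 also: 0% = compound-free wells with enzyme and 100% = wells lacking proteasome; stock transfer was 100 nL into about 20 µL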
Target sequence (Q9Y5K5 whole entry, looked up): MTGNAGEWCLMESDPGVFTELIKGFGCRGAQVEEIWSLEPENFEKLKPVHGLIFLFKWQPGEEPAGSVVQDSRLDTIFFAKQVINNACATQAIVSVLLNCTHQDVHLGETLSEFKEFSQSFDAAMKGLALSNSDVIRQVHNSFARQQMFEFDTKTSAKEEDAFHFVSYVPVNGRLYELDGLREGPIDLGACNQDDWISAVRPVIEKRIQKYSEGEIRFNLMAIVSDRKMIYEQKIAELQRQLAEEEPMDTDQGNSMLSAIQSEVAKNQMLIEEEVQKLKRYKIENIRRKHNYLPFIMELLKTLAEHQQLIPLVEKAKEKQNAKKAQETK
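Material: Human UCH37 enzyme supplied as purified proteasome complex | Schedule: 30 min compound-proteasome preincubation then 25 min substrate reaction, room temperature | Detection: AMC fluorescence from Ub-AMC cleavage, excitation 355 nm, emission 460 nm | Benchmarks: Wells without proteasome as full block, compound-free enzyme plus substrate as uninhibited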
LANA-H2B inh = blockers of LANA interaction with H2A/H2B – biochemical, FP readout, HTS, primary screen | Protein LANA1 (Human herpesvirus 8 type P (isolate GK18)), Q9QR71 | inhibition, % (no concentration beside the values) | 0.6% of 320,000 active | AID 2629, 2010 | cell-free LANA-H2A/H2B peptide, fluorescence polarization; in the data active = inhibition mostly above about 10%, no sharp cut-off; inactive = mostly below about 6.7%;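 also: stock transfer was 7.5 nL into about 10 µL; 0% = median of vehicle wells and 100% = median of positive control wells; one replicate is shown; the record names a cut of 25% in any replicate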
Beta2AR agonist = beta2AR agonists driving receptor internalization, primary screen, cell-based, FAP fluorogen, flow cytometry. Beta-2 adrenergic receptor (Homo sapiens), P07550. Am2.2-beta2AR cells; reference of the scale not given here. response, % (no concentration beside the values). 0.43% of 340,000 active;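 active = response above a set limit, near 3 SD of response in nonfluorescent compounds, cut at about 42% in these data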;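 also: stock transfer was 100 nL into about 11 µL; a reference agonist was the positive control; negative values mostly stem from fluorescent compounds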
Target sequence (P07550 whole entry, looked up): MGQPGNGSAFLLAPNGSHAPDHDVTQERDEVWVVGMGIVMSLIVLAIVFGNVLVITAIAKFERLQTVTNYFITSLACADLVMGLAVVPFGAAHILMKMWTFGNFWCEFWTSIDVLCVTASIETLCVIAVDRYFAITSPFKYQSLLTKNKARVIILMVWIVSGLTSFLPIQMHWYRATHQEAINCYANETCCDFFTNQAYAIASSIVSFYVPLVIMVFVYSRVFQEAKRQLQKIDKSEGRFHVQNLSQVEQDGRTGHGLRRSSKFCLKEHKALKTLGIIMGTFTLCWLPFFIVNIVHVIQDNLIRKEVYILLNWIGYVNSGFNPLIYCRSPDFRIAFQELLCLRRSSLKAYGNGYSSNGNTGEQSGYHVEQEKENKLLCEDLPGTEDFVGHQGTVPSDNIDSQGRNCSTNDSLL
E coli growth = E. coli growth inhibition, primary screen, OD600 | OD600 absorbance (no concentration beside the values) | Escherichia coli growth, 23 h; hits give low values | 0.21% of 330,000 active | AID 1053175, 2014;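 active = OD600 absorbance below the run mean of sample wells minus 3.6 SD, in any replicate, cut at about 0.56 in these data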;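 also: stock transfer was 300 nL into about 60 µL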
ALR H2O2 inh = inhibitors of human ALR sulfhydryl oxidase, primary screen, biochemical, H2O2 detection, HRP-luminol luminescence, single point | FAD-linked sulfhydryl oxidase ALR (Homo sapiens), P55789 | purified ALR, DTT oxidation | inhibition, % (no concentration beside the values) | 3.8% of 290,000 active | AID 485317, 2010;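 active = mean and each replicate at 75% or more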;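 also: stock transfer was 7.5 nL into about 7.5 µL; 0% = neutral wells and 100% = wells with inactivated enzyme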
Active calls of the source: *; i = inactive; . = no result given. A portion of the library. The share of hits here may be higher or lower than overall.

SMILES	HNF4A DNA FP	FGF22 binding	UCH37 DUB inh	LANA-H2B inh	Beta2AR agonist	E coli growth	ALR H2O2 inh
Cc1cc2c(c(=O)n1CC1CCCO1)C(c1ccc3c(c1)OCO3)C(C#N)=C(N)O2 (centres undefined)	1.1	.	5.0	9.4	3	0.76	-9
CC(NC(=O)c1cc2c(cc1Cl)N1CCCCCC1=NS2(=O)=O)c1ccc(S(N)(=O)=O)cc1 (centres undefined)	0.9	i	-0.4	-3.4	1	0.63	8
COC(=O)c1ccc(C(=O)OC)c(NC(=S)N2CCN(C(=O)C3CCCO3)CC2)c1 (centres undefined)	0.0	i	1.1	-4.1	14	0.69	.
CCOc1ccc(NC(=O)c2ccc(NCC(=O)N3CCCCCC3)cc2)cc1	2.9	i	-1.5	0.5	6	0.69	-7
Cc1ccc(C(=O)NCC(=O)OCC(=O)N2CCCc3ccccc32)cc1	2.0	.	5.2	-6.0	8	0.7	2
Cc1cc(NC(=O)c2ccc(Cl)c(S(=O)(=O)N3CCCCC3)c2)no1	0.5	i	1.7	-1.1	-16	0.71	-15
COCCN1C(=O)c2ccc(C(=O)O)cc2C1=O	-1.6	.	-0.3	1.9	8	0.72	-5
CC(/C=N/Nc1ncc(C)c(=O)[nH]1)=C\c1ccccc1	-9.1	.	.	-2.0	7	.	10
O=C(CCS(=O)(=O)Cc1ccc(Cl)cc1)NCCCN1CCOCC1	0.0	i	0.3	0.7	9	0.68	-6
CCc1cc2c(C)ccc(C)c2nc1SCC(=O)Nc1cc(C)on1	1.6	i	0.3	0.5	-3	0.71	.
CCOc1ccc(S(=O)(=O)N2CCCC(C(=O)NCc3ccncc3)C2)cc1Cl (centres undefined)	-0.5	i	2.7	4.5	-3	0.64	.
CCS(=O)(=O)c1ccc2oc(Nc3ccc(C(C)C)cc3)nc2c1	3.1	.	0.7	-0.1	11	0.69	-9
Cc1ccccc1NC(=O)c1cc2c(C)nc3ccccc3c2o1	-1.1	i	0.0	-5.0	-3	0.69	-13
COc1cccc(Nc2ncc(C(=O)O)c3ccccc23)c1	-0.7	.	12	-3.4	1	0.73	9
COc1ccc(S(=O)(=O)n2cnc3ccccc32)cc1OC	1.8	i	6.0	-0.8	0	0.71	-5
COc1cc(/C=C2\SC(=S)N(NC(=O)c3cccc(O)c3)C2=O)ccc1O	47*	i	6.7	0.0	-94	0.67	95*
O=C(COC(=O)/C=C/c1ccc2c(c1)OCO2)Nc1ccccc1	4.2	i	-13	2.1	8	0.66	1
NC(=O)C1CCCN(C(=O)c2ccc(NC(=O)c3cccs3)cc2)C1 (centres undefined)	-9.3	i	1.5	-1.1	-9	0.7	4
Cc1ccc(-c2nnn(CC(=O)N(c3ccccc3)C(C(=O)NCC3CCCO3)c3cccs3)n2)o1 (centres undefined)	-2.6	.	2.8	0.9	8	0.67	-2
COc1ccccc1NC(=O)C(Cc1ccc(Cl)cc1)c1nn[nH]n1 (centres undefined)	2.3	.	6.5	-0.8	4	0.71	-38
Cc1ccc(C(=O)NNC(=O)c2ccco2)cc1	0.7	.	-1.0	-0.7	9	0.67	12
COc1cccc(-n2cc(CN(C)Cc3nc(Cc4cccc(F)c4)no3)cn2)c1	4.0	i	1.1	0.5	3	0.71	.
Cc1ccc2c(N)c(C(=O)N(c3ccccc3)c3ccccc3)sc2n1	-2.2	.	-107	-5.1	-8	0.7	-4
C=CCn1cccc(C(=O)Nc2ccc(OC)c(Cl)c2)c1=O	1.7	.	3.3	-3.3	6	0.68	-2
COc1ccccc1NC(=O)Nc1nc(CC(=O)NCc2ccc(F)cc2)cs1	1.5	i	1.4	0.7	18	0.62	4
COc1ccccc1N1CCN(CC(=O)Nc2cccc(F)c2)CC1	-0.9	.	6.1	1.6	1	0.77	22
Cn1c(=O)cc(OCC(=O)NCc2cccs2)c2ccccc21	-2.1	i	4.8	-2.7	-8	0.69	-15
COc1ccc(OCc2cc(C(=O)NCCN3CCCC(O)C3)no2)c(Cl)c1 (centres undefined)	-1.5	i	2.2	-5.4	-3	0.69	-14
Cc1ccc(NC(=S)NC(NC(=O)c2ccccc2)C(Cl)(Cl)Cl)c(C)c1 (centres undefined)	-4.2	.	6.9	.	29	0.66	.
Cc1ccc(NC(=O)Cn2c(C)cc(C)c(C#N)c2=O)c(Cl)c1	0.7	.	-6.9	-0.7	-6	0.71	-6

The final four records of the part above open the next one:
SMILES	HNF4A DNA FP	FGF22 binding	UCH37 DUB inh	LANA-H2B inh	Beta2AR agonist	E coli growth	ALR H2O2 inh
Cn1c(=O)cc(OCC(=O)NCc2cccs2)c2ccccc21	-2.1	i	4.8	-2.7	-8	0.69	-15
COc1ccc(OCc2cc(C(=O)NCCN3CCCC(O)C3)no2)c(Cl)c1 (centres undefined)	-1.5	i	2.2	-5.4	-3	0.69	-14
Cc1ccc(NC(=S)NC(NC(=O)c2ccccc2)C(Cl)(Cl)Cl)c(C)c1 (centres undefined)	-4.2	.	6.9	.	29	0.66	.
Cc1ccc(NC(=O)Cn2c(C)cc(C)c(C#N)c2=O)c(Cl)c1	0.7	.	-6.9	-0.7	-6	0.71	-6
Cn1c(/C(C#N)=C2/CCCCCN2)nc2ccccc21	-0.6	.	-4.4	-1.0	-14	.	-10
O=C(CCn1c(=O)oc2ccccc21)Nc1nccs1	7.1	.	-1.4	1.7	-14	0.72	-1
Cc1cc(=O)n2nc(N3CCC(C(=O)NCc4cccc(Br)c4)CC3)sc2n1	6.3	i	-0.2	8.1	1	0.68	1
CC(C)=CCc1cc([C@@H]2CC(=O)c3ccc(O)c(CC=C(C)C)c3O2)ccc1O	0.0	i	-0.2	1.1	-7	0.67	-1
COC(=O)c1sccc1NC(=S)Nc1cc(C)ccc1OC	8.4	i	4.5	-7.0	-7	0.66	13
COc1ccc(CNC(=O)CSc2cccc3cccnc23)cc1	-5.7	i	-50	-1.5	-3	0.68	-10
O=C(C=Cc1ccc2c(c1)OCO2)c1ccccc1	1.9	i	5.4	.	10	0.68	.
Cc1ccc(S(=O)(=O)N(C)c2ccccc2C(=O)Nc2ccc3c(c2)OCCO3)cc1	7.0	i	-0.4	-2.4	-8	0.72	-2
CCOc1cc(/C=N/O)ccc1OCc1ccccc1F	-0.5	.	.	-4.9	-3	.	53
Cc1occc1C(=O)NCc1ccccc1	-0.5	.	-2.3	0.5	4	0.72	12
Cc1oc(-c2ccc(Cl)cc2)nc1CS(=O)CC(=O)NCc1ccco1 (centres undefined)	1.3	i	2.2	-2.6	-1	0.65	99*
O=C(CSc1nnc(COc2ccccc2)o1)NC1CC2CCC1C2 (centres undefined)	0.8	i	0.1	3.9	-6	0.66	1
Cc1cccc(NC(=O)Cc2nnc(NC(=O)Nc3ccccc3F)s2)c1	-1.4	i	4.6	0.1	-2	0.73	-1
CCSc1nnc(NC(=O)Cc2ccc(OC)cc2)s1	-1.3	.	0.9	6.9	4	0.72	-1
CCN1CCc2c(sc(NC(=O)c3ccc(C(=O)c4ccccc4)cc3)c2C(N)=O)C1	5.3	i	9.3	7.1	13	0.67	6
CC(C)(C)c1ccc(S(=O)(=O)NCc2ccc(C(=O)NCC3CCCO3)cc2)cc1 (centres undefined)	1.7	i	4.2	3.1	-6	0.73	-4
Cc1cc(C)cc(N=c2c([N+](=O)[O-])nn(-c3ccc4c(c3)OCCO4)n2O)c1	-5.5	i	6.5	6.7	2	0.68	-15
COc1ccc(OCc2cc(C(=O)NC3Cc4ccccc4C3)no2)c(Cl)c1	2.4	i	5.2	2.0	-5	0.66	3
Cc1[nH]c(=O)[nH]c(=O)c1S(=O)(=O)N1CCN(c2ccccc2)CC1	-0.8	i	-0.4	2.1	2	0.62	13
Cc1cc(OC(C)C(=O)NCc2ccccn2)c2c(C)c(C)c(=O)oc2c1 (centres undefined)	2.1	i	-33	6.6	2	0.69	-17
Cc1cc([N+](=O)[O-])nn1CC(=O)Nc1ccc(F)cc1	1.3	i	0.9	-2.3	4	0.71	3
Cc1cc(C2=NNC(=Nc3ccc(S(=O)(=O)N4CCOCC4)cc3)SC2)c(C)n1C	-2.0	i	5.1	-4.1	-1	0.67	.
COC(CNC(=O)CN1C(=O)COc2ccc(S(=O)(=O)N3CCOCC3)cc21)OC	1.2	i	1.0	.	4	0.68	-11
COc1ccc(-n2nnnc2SCC(=O)N2CCN(C(=O)c3ccco3)CC2)cc1OC	-0.2	.	2.0	1.1	-7	0.68	-4
NS(=O)(=O)c1cc(C2(O)NC(=O)c3ccccc32)ccc1Cl (centres undefined)	-2.2	i	1.3	-12	1	0.64	-2
COc1ccc(-n2nnnc2SCC(=O)Nc2ccccc2)cc1	1.3	.	-0.8	2.1	-5	0.74	-18
CN(C)c1ccc(CNC2C3CC4CC(C3)CC2C4)cc1 (centres undefined)	-0.6	.	3.8	-2.3	1	0.67	44
O=C(CSc1nc2ccccc2o1)Nc1nc(-c2ccccc2)c(-c2ccccc2)s1	0.5	i	-22	2.4	7	0.79	-10
CCCC(NS(=O)(=O)c1ccc(C)cc1)C(=O)O (centres undefined)	-2.7	.	-0.4	3.0	1	0.72	-3
Cc1nc(Nc2ncc3c(n2)CC(C)(C)CC3=O)nc2ccccc12	1.2	i	4.5	.	-12	0.72	.

Complete entries, looked up by structure. Values in the order: HNF4A DNA FP, FGF22 binding, UCH37 DUB inh, LANA-H2B inh, Beta2AR agonist, E coli growth, ALR H2O2 inh
Cc1cc([N+](=O)[O-])nn1CC(=O)Nc1ccc(F)cc1 as listed: 1.3, i, 0.9, -2.3, 4, 0.71, 3
CN(C)c1ccc(CNC2C3CC4CC(C3)CC2C4)cc1 (centres undefined) as listed: -0.6, ., 3.8, -2.3, 1, 0.67, 44
O=C(CSc1nc2ccccc2o1)Nc1nc(-c2ccccc2)c(-c2ccccc2)s1 as listed: 0.5, i, -22, 2.4, 7, 0.79, -10

Later entries
SMILES	HNF4A DNA FP	FGF22 binding	UCH37 DUB inh	LANA-H2B inh	Beta2AR agonist	E coli growth	ALR H2O2 inh
CCOC(=O)CNc1c(-c2ccccc2)nc2ccc(Cl)cn12	5.4	.	-40	3.6	1	0.7	55
O=C(NCc1ccc2c(c1)OCO2)Oc1ccccc1	0.9	i	3.5	-5.9	0	0.73	.
COc1ccc(C(=O)NC2CCCc3c2cnn3-c2ccccc2F)o1 (centres undefined)	7.3	i	4.4	-4.8	-2	0.69	18
CCOc1ccc(CN(C(=O)c2ccccn2)c2ccc(OC)c(Cl)c2)cc1	4.8	i	-0.5	2.7	-8	0.66	-20
CN1CCN(c2ccc(NC(=O)c3cccs3)cc2)CC1	0.7	i	1.0	1.8	-16	0.68	14
Cc1ccc(CNC(=O)C2CCC(=O)N(CCc3ccccn3)C2)s1 (centres undefined)	-0.7	i	0.1	3.4	5	0.71	-4
CN(C=C1C(=O)CC(C)(C)CC1=O)CCN1CCNCC1	-0.9	.	-1.5	3.1	3	0.75	10
O=c1ccc2cc(S(=O)(=O)N3CCN(c4ccccc4F)CC3)ccc2[nH]1	-1.2	i	5.4	-8.8	-8	0.77	.
CCCN(CCC(=O)Nc1cc(OC)cc(OC)c1)CC1CC1	1.8	.	-1.4	2.5	4	0.78	-28
COc1ccc2c(c1)c(/C=N/Nc1nc3ccccc3[nH]1)c(C)n2C	-3.4	i	.	-1.5	14	.	7
O=C(O)CCc1ccc(-c2ccccc2)n1NC(=O)c1cccs1	0.7	i	1.8	-1.0	6	0.72	15
Cc1ccc(S(=O)(=O)CCc2nc3ccccc3[nH]2)cc1C	-0.4	i	0.3	-3.9	-3	0.68	5
CCOc1ccccc1NC(=S)N(CCOC)C1CCN(C(C)=O)CC1	3.5	i	4.4	2.4	4	0.66	-6
COc1ccc(NC(=O)c2cc([N+](=O)[O-])ccc2N2CCCCC2)cc1	31*	i	1.7	1.7	-29	0.67	3
